DUX4 txn inh – blocks DUX4-driven transcriptional activation. 293T-iDUX4 ZSCAN4-Gaussia luciferase reporter, 24 h; hits give low values. activity change, negative = inhibition, % (concentration not given with the values). 37,000 tested, 0.8% active;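 active means -10% or lower and over 25 points stronger than a control reporter; inconclusive means -10% or lower with a smaller gap; inactive means above -10%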;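 further: 0% = median of neutral control wells and -100% = median of positive control wells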
DUX4 txn inh difference – further read-out of DUX4 txn inh, marked with its call; Gaussia minus Italica difference, %; measured here: selective DUX4 reporter inhibition;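 worked out from the two reporters; negative = selective loss of the DUX4 reporter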
DUX4 txn inh control – also measured in DUX4 txn inh; calls as there; activity change, negative = inhibition, %; measured here: Italica tet-on control reporter;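 0 = neutral control and -100 = positive control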
Active calls of the source: *; ? = inconclusive; . = no result given. This is a subset. The share of hits here may be higher or lower than overall.

SMILES	DUX4 txn inh	DUX4 txn inh difference	DUX4 txn inh control
O=C(NC[C@@H]1[C@H](c2ccccc2)[C@@H](CO)N1C(=O)Cc1cccnc1)C1CC1	5.8	-4.8	10.7
O=C(C[C@@H]1CC[C@H]2[C@@H](COC[C@H](O)CN2C(=O)Nc2ccc(C(F)(F)F)cc2)O1)NC1Cc2ccccc2C1	1.6	9.7	-8.2
N#Cc1ccc(-c2ccc3c(c2)[C@H]2[C@H](CCN2Cc2ccc4c(c2)OCO4)[C@@H](CO)N3)cc1	4.2	-1.4	5.6
CO[C@@H]1CC[C@@H]2CCN(C)C(=O)CC3(CCCCC3)CN(C)C(=O)c3cc(C#N)ccc3OC[C@H]1O2	-2.6	0.5	-3.0
CCCNC(=O)N1[C@H](CO)[C@H](c2ccccc2)[C@@H]1CNC(=O)c1ccccc1	5.5	-0.9	6.4
O=C(CC1CC1)N1CC(=O)N2[C@H](C1)[C@@H](c1ccc(C#Cc3cccc(F)c3)cc1)[C@@H]2CO	?	.	.
COc1ccc(NC(=O)N(C)C[C@H]2Oc3ccc(NC(=O)C4CCCCC4)cc3CC(=O)N([C@@H](C)CO)C[C@@H]2C)cc1	6.6	-5.0	11.5
CC(=O)NC[C@H]1[C@H](c2ccc(-c3ccccc3F)cc2)[C@H](CO)N1C(C)=O	-0.3	-0.5	0.2
CC(=O)N1[C@H](C(=O)NCC2CC2)[C@@H](CO)[C@@H]2Cn3c(ccc(-c4cccc(F)c4)c3=O)[C@@H]21	0.6	0.3	0.3
COc1ccc(-c2ccc([C@@H]3[C@@H](CO)N4C(=O)CNC[C@@H]34)cc2)cc1	17.7	5.6	12.1
C[C@@H]1CN([C@H](C)CO)C(=O)Cc2cc(NS(C)(=O)=O)ccc2O[C@H]1CN(C)Cc1ccc(C(F)(F)F)cc1	-0.2	-2.0	1.8
COc1ccccc1NC(=O)N1C[C@@H]2[C@H](c3ccccc31)[C@H](CO)N2C(C)=O	-0.1	2.9	-3.0
C[C@H]1CN([C@@H](C)CO)C(=O)c2ccccc2-c2ccccc2CO[C@@H]1CN(C)S(=O)(=O)c1ccc(F)cc1	17.4	15.5	1.8
O=C(NCc1cc(F)cc(F)c1)[C@@H]1[C@@H](CO)[C@@H]2Cn3c(cccc3=O)[C@H]1N2C(=O)c1cnccn1	10.1	2.3	7.8
CN1C(=O)c2cc(NC(=O)c3ccc(F)c(F)c3)ccc2OC[C@H]2O[C@H](CC(=O)N[C@H]3CCN(Cc4ccccc4)C3)CC[C@H]21	-2.4	-0.9	-1.5
C[C@H](NC(=O)C[C@H]1C=C[C@@H](NC(=O)CN2CCOCC2)[C@H](CO)O1)c1ccccc1	3.0	2.4	0.6
C/C=C/c1ccc(C2[C@H]3CNC[C@@H]2N3Cc2cccc(C(F)(F)F)c2)cc1 (stereo partly specified)	9.1	9.3	-0.1
O=C(C[C@H]1CC[C@H]2[C@@H](COC[C@H](O)CN2S(=O)(=O)c2cccc(Cl)c2)O1)N1CCOCC1	3.9	5.3	-1.4
CO[C@H]1CN(C)C(=O)c2cc(NC(=O)C3CC3)ccc2OC[C@H](C)N(C(=O)c2ccccn2)C[C@H]1C	1.4	4.5	-3.1
O=C(Nc1ccc2c(c1)[C@H]1C[C@H](CC(=O)N3CCc4ccccc4C3)O[C@@H](CO)[C@H]1O2)NC1CCCC1	1.5	6.0	-4.5
CC(C)NC(=O)N(C)C[C@H]1OCCCC[C@H](C)Oc2ccc(NS(C)(=O)=O)cc2C(=O)N([C@@H](C)CO)C[C@H]1C	8.6	5.8	2.7
COc1cccc(S(=O)(=O)N2CC[C@@H]3[C@H](CO)Nc4ccc(-c5ccc(C#N)cc5)cc4[C@@H]32)c1	?	.	.
CCCNC(=O)Nc1ccc2c(c1)C(=O)N(C)[C@@H]1CC[C@@H](CC(=O)NCCCN(C)C)O[C@H]1CO2	-0.3	-2.1	1.8
C[C@@H]1CCCCO[C@H](CN(C)S(=O)(=O)c2cn(C)cn2)[C@H](C)CN([C@H](C)CO)C(=O)c2cc(NC(=O)CCCN(C)C)ccc2O1	1.1	2.3	-1.2
CN1CCN(C(=O)C[C@H]2C[C@H]3c4cc(NC(=O)Cc5ccncc5)ccc4O[C@H]3[C@@H](CO)O2)CC1	12.2	7.7	4.5

Next section:
SMILES	DUX4 txn inh	DUX4 txn inh difference	DUX4 txn inh control
COc1ccc(C#Cc2ccc3c(c2)[C@H]2[C@H](CCN2S(=O)(=O)c2ccc(OC)cc2)[C@@H](CO)N3C)cc1	7.9	-12.0	19.9
CCN(C[C@H]1N[C@H](CO)[C@@H]1c1ccc(-c2cccc(F)c2)cc1)C(=O)CN(C)C	2.8	1.3	1.5
C[C@@H]1CN([C@H](C)CO)C(=O)CCCn2cc(nn2)CO[C@H]1CN(C)C(=O)Nc1ccnc(N2CCOCC2)c1	1.3	2.6	-1.3
C[C@@H]1CN([C@H](C)CO)C(=O)Cc2cc(NC(=O)CCN3CCOCC3)ccc2O[C@H]1CN(C)C(=O)NC1CCCCC1	-1.4	-3.3	1.8
CC(C)NC(=O)N1C[C@H]2[C@@H](c3ccccc31)[C@H](CO)N2C(=O)c1ccccn1	-1.2	1.9	-3.1
C[C@@H]1CN([C@@H](C)CO)C(=O)c2cc(NS(=O)(=O)c3cn(C)cn3)ccc2O[C@@H]1CN(C)Cc1ccc(-c2ccccc2)cc1	-2.9	-2.0	-0.9
O=C(C1CCC1)N1CC2(C1)[C@H](c1ccccc1)[C@@H](CO)N2Cc1ccccc1F	?	.	.
COCC(=O)N1CC[C@@H]2[C@H]1c1cc(-c3ccc(F)cc3)ccc1N(C)[C@H]2CO	24.7	17.0	7.7
C[C@H]1CN([C@@H](C)CO)C(=O)c2c(c3ccccc3n2C)-c2ccccc2CO[C@@H]1CN(C)Cc1cccc(F)c1	?	.	.
COC(=O)c1ccc(CN2CC(=O)N3[C@H](CO)[C@H](c4ccc(-c5ccccc5)cc4)[C@@H]3C2)cc1	4.5	1.3	3.2
COCC(=O)NC[C@H]1[C@H](c2ccc(C3=CCCC3)cc2)[C@H](CO)N1C(C)=O	-4.5	-5.2	0.6
C[C@@H]1CN([C@H](C)CO)S(=O)(=O)c2ccc(-c3ccccc3F)cc2O[C@@H]1CN(C)Cc1cncnc1	2.2	1.9	0.3
O=C(C[C@H]1C[C@H]2c3cc(NC(=O)Cc4ccncc4)ccc3O[C@H]2[C@H](CO)O1)NCCN1CCCCC1	6.7	-2.6	9.3
CC(=O)N1[C@H](CO)[C@H](c2ccc(-c3cncnc3)cc2)[C@@H]1CN(C)C(=O)C1CC1	0.3	1.0	-0.8
CN(C)C(=O)C[C@@H]1CC[C@H]2[C@@H](COc3ccc(NS(=O)(=O)c4cccc(F)c4)cc3C(=O)N2C)O1	1.2	3.1	-1.8
COc1cccc(-c2ccc3c(c2)[C@@H]2[C@@H](CCN2C(=O)c2ccccc2F)[C@@H](CO)N3C)c1	?	.	.
COc1ccc(-c2ccc3n(c2=O)C[C@H]2[C@H](CO)[C@@H](C(=O)NCCN4CCCCC4)N(C)[C@@H]32)cc1	6.1	6.7	-0.6
Cc1ccccc1S(=O)(=O)N1C[C@H](O)COC[C@@H]2O[C@@H](CC(=O)O)CC[C@H]21	8.5	8.7	-0.2
C/C=C/c1ccc([C@@H]2[C@@H](CNC(=O)C3CCC3)N(C(=O)NCCC)[C@H]2CO)cc1	-6.0	-1.8	-4.2
O=C(N[C@H]1C=C[C@@H](CC(=O)N2CCCCC2)O[C@@H]1CO)c1ccc2c(c1)OCO2	5.3	6.8	-1.5
C[C@@H]1CN([C@H](C)CO)C(=O)c2cccc(NC(=O)c3ccc(-c4nccs4)cc3)c2O[C@@H]1CN(C)Cc1ccc(Cl)c(Cl)c1	3.8	0.4	3.4
C[C@@H]1CN([C@H](C)CO)C(=O)c2cccc(NC(=O)Nc3ccc(C(F)(F)F)cc3)c2O[C@H]1CN(C)S(=O)(=O)c1cn(C)cn1	-2.6	-2.8	0.2
O=C(C[C@@H]1CC[C@@H]2[C@H](COC[C@@H](O)CN2Cc2cccc(Cl)c2)O1)N1CCOCC1	-3.5	0.0	-3.5
O=C1CN(Cc2ccccc2)C[C@H]2[C@@H](c3ccc(Br)cc3)[C@@H](CO)N12	12.2	-0.7	12.9
C[C@H](CO)N1C[C@H](C)[C@@H](CN(C)C(=O)C2CCCCC2)Oc2ncc(Br)cc2C1=O	2.8	-1.3	4.0

10 of the compounds above, in CSV form.
SMILES,DUX4 txn inh,DUX4 txn inh difference,DUX4 txn inh control
C[C@@H]1CN([C@H](C)CO)S(=O)(=O)c2ccc(-c3ccccc3F)cc2O[C@@H]1CN(C)Cc1cncnc1,2.2,1.9,0.3
O=C(C[C@H]1C[C@H]2c3cc(NC(=O)Cc4ccncc4)ccc3O[C@H]2[C@H](CO)O1)NCCN1CCCCC1,6.7,-2.6,9.3
CC(=O)N1[C@H](CO)[C@H](c2ccc(-c3cncnc3)cc2)[C@@H]1CN(C)C(=O)C1CC1,0.3,1.0,-0.8
CN(C)C(=O)C[C@@H]1CC[C@H]2[C@@H](COc3ccc(NS(=O)(=O)c4cccc(F)c4)cc3C(=O)N2C)O1,1.2,3.1,-1.8
COc1cccc(-c2ccc3c(c2)[C@@H]2[C@@H](CCN2C(=O)c2ccccc2F)[C@@H](CO)N3C)c1,?,.,.
COc1ccc(-c2ccc3n(c2=O)C[C@H]2[C@H](CO)[C@@H](C(=O)NCCN4CCCCC4)N(C)[C@@H]32)cc1,6.1,6.7,-0.6
Cc1ccccc1S(=O)(=O)N1C[C@H](O)COC[C@@H]2O[C@@H](CC(=O)O)CC[C@H]21,8.5,8.7,-0.2
C/C=C/c1ccc([C@@H]2[C@@H](CNC(=O)C3CCC3)N(C(=O)NCCC)[C@H]2CO)cc1,-6.0,-1.8,-4.2
O=C(N[C@H]1C=C[C@@H](CC(=O)N2CCCCC2)O[C@@H]1CO)c1ccc2c(c1)OCO2,5.3,6.8,-1.5
C[C@@H]1CN([C@H](C)CO)C(=O)c2cccc(NC(=O)c3ccc(-c4nccs4)cc3)c2O[C@@H]1CN(C)Cc1ccc(Cl)c(Cl)c1,3.8,0.4,3.4

(further entries)
SMILES	DUX4 txn inh	DUX4 txn inh difference	DUX4 txn inh control
COc1ccc(-c2ccc3c(c2)[C@@H]2[C@@H](CCN2C(=O)c2ccc4c(c2)OCO4)[C@H](CO)N3)cc1	?	.	.
CCC(=O)N1CC2(C1)CN(S(C)(=O)=O)[C@@H](CO)c1[nH]c3cc(OC)ccc3c12	24.1	6.1	18.0
COc1ccc(-c2ccc([C@H]3[C@H]4CN(Cc5ccc(F)cc5)CC(=O)N4[C@H]3CO)cc2)cc1	0.2	-5.7	5.9
CCNC(=O)C[C@@H]1CC[C@@H]2[C@H](COC[C@@H](O)CN2C(=O)Nc2cccc(OC)c2)O1	1.6	1.6	0.0
O=C(NCC1CC1)[C@@H]1[C@@H](CO)[C@@H]2Cn3c(ccc(-c4ccccc4F)c3=O)[C@H]1N2Cc1cncnc1	-6.0	-12.7	6.7
CO[C@@H]1CN(C)C(=O)c2ccc(NC(=O)C3CCC3)cc2OC[C@H](C)NC[C@H]1C	0.2	0.4	-0.2
Cn1cnc(S(=O)(=O)N2C[C@@H](O)COC[C@H]3O[C@H](CC(=O)N4CCN(c5ccccc5)CC4)CC[C@@H]32)c1	4.6	3.0	1.7
CO[C@H]1CN(C)C(=O)c2cc(NS(C)(=O)=O)ccc2OC[C@@H](C)N(CC2CCOCC2)C[C@@H]1C	0.4	-4.5	4.9
CCC(=O)N1C[C@@H](O)COC[C@@H]2O[C@@H](CC(=O)NCc3ccccc3Cl)CC[C@H]21	11.8	6.9	4.8
CCNC(=O)[C@@H]1[C@@H](CO)[C@@H]2Cn3c(ccc(C4=CCCC4)c3=O)[C@H]1N2C(=O)C1CC1	-9.6	-4.7	-4.9
C[C@H](CO)N1C[C@H](C)[C@H](CN(C)C(=O)CCN(C)C)OCc2ccccc2-c2ccccc2C1=O	2.7	-0.4	3.2
CCN1[C@@H]2c3ccc(-c4ccccc4)c(=O)n3C[C@@H]2[C@@H](CO)[C@@H]1C(=O)NCC(F)(F)F	11.3	11.8	-0.4
CCC(=O)N1[C@H](CO)[C@@H](c2ccc(-c3cccc(F)c3)cc2)[C@@H]1CNC(C)=O	2.7	-0.9	3.6
O=C(CCN1CCCCC1)N[C@H]1CC[C@H](CC(=O)N2CCC(Cc3ccccc3)CC2)O[C@H]1CO	-3.6	0.2	-3.8
CCCN1CCC2(CC1)CN(Cc1ccccc1OC)[C@@H](CO)c1c2c2ccc(OC)cc2n1C	?	.	.
CCCC#Cc1ccc([C@@H]2[C@@H](CO)N3CCCCN(Cc4cccnc4)C[C@@H]23)cc1	-4.4	-6.8	2.4
C[C@@H]1CN([C@@H](C)CO)C(=O)c2cc(NS(=O)(=O)c3ccc(F)cc3)ccc2O[C@@H](C)CCCCO[C@H]1CN(C)Cc1ccc(C(=O)O)cc1	0.1	1.0	-0.9
C[C@H](CO)N1C[C@H](C)[C@@H](CN(C)Cc2ccc3cccnc3c2)OCc2cn(nn2)CCCC1=O	-0.7	2.0	-2.7
O=C(c1cccnc1)N1CC[C@H]2[C@H](CO)Nc3ccc(-c4ccc(F)cc4)cc3[C@H]21	9.9	4.5	5.4
COc1ccc(-c2ccc([C@@H]3[C@H]4CN(C(=O)c5ccc(F)cc5)CCCCN4[C@H]3CO)cc2)cc1	?	.	.
O=C(C1CCCCC1)N1[C@H](CO)[C@H]2c3ccccc3NC[C@H]21	0.2	2.6	-2.4
O=C1N[C@@H](Cc2ccccc2)COCc2cnnn2CC[C@H]1Cc1cccc(F)c1	-3.4	-2.4	-1.0
CC[C@@H]1CC=CC[C@H](C)Oc2ccccc2C(=O)N(C)[C@@H](C(C)C)C(=O)N1 (mixture of isomers)	3.9	-2.3	6.3
Cc1noc(C)c1NC(=O)NCC[C@@H]1CC[C@@H](NC(=O)Nc2cccc(Cl)c2)[C@H](CO)O1	1.2	2.0	-0.8
CCC(=O)N1CC(=O)N2[C@@H](CO)[C@H](c3ccc(C#Cc4cccc(F)c4)cc3)[C@@H]2C1	2.7	1.8	0.9

Bioassay records from PubChem BioAssay.
